MITF inhib – blocks MITF activity; actives 0.28% (n = 37,000); inhibition, % (test concentration not listed); AID 2240; TRPM1 promoter luciferase, luminescence, 24 h;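 active = most replicates at 85% or more, or half of them and the mean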;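 also: human melanocyte line stably carrying TRPM1 promoter luciferase reporter; 0% = vehicle wells and 100% = a positive control; the first replicate is given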
YB-1 expr inh – YB-1 expression inhibition | U2OS, qRT-PCR YB-1 vs CDIP delta delta Cp, 16 h; stronger effect = higher value; zero = DMSO, each unit about twofold | delta delta Cp (YB-1 minus CDIP) (test concentration not listed) | actives 0.37% (n = 30,000);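 active = delta delta Cp rounded down to an integer at or above 3, about 3 SD of DMSO wells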;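 also: higher means less YB-1 transcript or more CDIP transcript relative to DMSO; stock transfer was 100 nL into about 100 µL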
PD-1 reversal – reversal of PD-1 mediated T-cell inhibition. activation, % (test concentration not listed). AID 2316. 29,000 tested, under 10 active. primary human CD4 T cells, PD-L1 beads, CellTiter-Glo 96 h;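 active = replicate mean of 50% or more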;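 also: 0% = median vehicle wells and 100% = positive control; 100 nL library stock added to about 50 µL; numbers are from one replicate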
Hedgehog inh – Sonic Hedgehog pathway inhibition; Shh-LIGHT2 Gli-luciferase reporter, 30 h; inhibition, % (test concentration not listed); actives 2.1% (n = 22,000);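 active = replicate mean of 65% or more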;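 also: pathway switched on by Shh-conditioned medium diluted 1 in 25 in low serum; 100 nL library stock added to about 40 µL; 0% = median of neutral wells and 100% = positive control level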
The depositor's hits bear a star; x = no result given. Not all compounds are listed (hit frequency here may not be typical).

SMILES | MITF inhib | YB-1 expr inh | PD-1 reversal | Hedgehog inh
C[C@H](CO)N1C[C@H](C)[C@H](CN(C)S(C)(=O)=O)Oc2ccc(N(C)C)cc2CC1=O | -12.2 | -0.0334 | 1.5 | -37.9
O=C(COc1cc(O)c2c(=O)c3ccccc3oc2c1)c1cccc([N+](=O)[O-])c1 | -6.5 | x | 0.0 | x
C[C@@H]1CN([C@@H](C)CO)C(=O)c2cccc(NS(=O)(=O)c3cccs3)c2O[C@H]1CN(C)C(=O)NC1CCCCC1 | -7.8 | 0.124 | 3.4 | -10.7
C[C@H](CO)N1C[C@H](C)[C@@H](CN(C)S(=O)(=O)c2cn(C)cn2)Oc2c(NC(=O)Nc3ccc(F)cc3)cccc2C1=O | 4.3 | 0.284 | 2.5 | -36.2
Cc1nc(NCC2CCCO2)c2c3c(sc2n1)CCC3 (configuration not stated) | 7.3 | x | -0.1 | x
COc1ccc(S(=O)(=O)Nc2ccc3c(c2)C(=O)N([C@H](C)CO)C[C@@H](C)[C@H](CN(C)C(=O)NC2CCCCC2)O3)cc1 | -1.3 | -1.5 | 1.1 | x
C[C@H](CO)N1C[C@H](C)[C@H](CN(C)S(=O)(=O)c2ccccc2)Oc2ccc(NC(=O)CCCN(C)C)cc2C1=O | -6.8 | -0.133 | 0.5 | -25.4
O=C(COc1ccccc1C(=O)O)Nc1ccccc1 | -55.3 | x | 2.7 | x
Cc1noc(C)c1S(=O)(=O)Nc1ccc2c(c1)CC(=O)N([C@@H](C)CO)C[C@@H](C)[C@@H](CN(C)C(=O)Nc1ccc3c(c1)OCO3)O2 | -4.2 | 0.00885 | x | x
CCc1cc2c(=O)c(-c3nc(C)cs3)c(CCCC(=O)O)oc2cc1O | 22.2 | x | 1.7 | x
Cn1cnc([N+](=O)[O-])c1Sc1ncnc2nc[nH]c12 | 23.3 | 0.148 | 2.3 | 22.2
Cc1c(C)c(C)c(S(=O)(=O)NCCCN2CCOCC2)c(C)c1C | -10.2 | 0.237 | -1.4 | 11.9
C[C@H]1CN([C@@H](C)CO)C(=O)c2cccc(NS(=O)(=O)c3ccc(Cl)cc3)c2O[C@H]1CN(C)C(=O)Nc1ccc(F)cc1 | 12.7 | -0.0246 | -4.2 | 16.6
C[C@@H]1CN([C@@H](C)CO)C(=O)Cc2cc(NC(=O)CCC(F)(F)F)ccc2O[C@@H]1CN(C)Cc1ccc(C(=O)O)cc1 | 0.8 | 0.309 | 1.0 | -14.8
Cc1ccc(S(=O)(=O)Nc2ccc3c(c2)CC(=O)N([C@H](C)CO)C[C@@H](C)[C@H](CN(C)Cc2ccc(-c4ccccc4)cc2)O3)cc1 | -9.7 | -0.189 | -5.1 | -31.6
C[C@@H]1CN([C@H](C)CO)C(=O)c2cc(NS(=O)(=O)c3cn(C)cn3)ccc2O[C@@H]1CN(C)C | -2.1 | -0.306 | 0.4 | x
CC1(C)CCc2cc(-c3ccnc(=S)[nH]3)ccc2O1 | 31.8 | -0.518 | -4.8 | 65.9*
C[C@H]1CN([C@@H](C)CO)C(=O)c2cc(NC(=O)CCCN(C)C)ccc2O[C@@H]1CN(C)S(=O)(=O)c1cccs1 | -8.3 | -0.429 | -0.7 | -10.9
COc1ccc(NC(=O)Nc2cccc3c2O[C@@H](CN(C)S(=O)(=O)c2cn(C)cn2)[C@H](C)CN([C@@H](C)CO)C3=O)cc1 | -11.4 | -0.144 | x | -0.3
Cc1noc(C)c1S(=O)(=O)N(C)C[C@H]1Oc2ccc(NC(=O)NC(C)C)cc2CC(=O)N([C@@H](C)CO)C[C@@H]1C | -3.0 | -0.407 | x | -29.0
Cc1c(C(=O)O)sc2nc(SCC(=O)Nc3ccccc3C(F)(F)F)[nH]c(=O)c12 | -8.0 | x | 2.4 | x
C[C@H]1CN([C@@H](C)CO)C(=O)c2cc(NC(=O)Nc3ccc(C(F)(F)F)cc3)ccc2O[C@H]1CN(C)C(=O)Nc1cccc2ccccc12 | 28.8 | -0.182 | -1.5 | -10.5
C[C@H](CO)N1C[C@H](C)[C@H](CN(C)Cc2ccc(C(=O)Nc3ccccc3N)cc2)Oc2ccc(NC(=O)Nc3cccc4ccccc34)cc2CC1=O | 24.5 | -0.571 | -5.2 | x
COC(=O)c1ccccc1NC(=O)CN(C)S(=O)(=O)c1c(C)cc(C)cc1C | -0.2 | x | -0.6 | x
C[C@@H]1CN([C@@H](C)CO)C(=O)c2cccc(NC(=O)NC3CCCCC3)c2O[C@@H]1CN(C)Cc1ccc(Oc2ccccc2)cc1 | 5.2 | 0.0863 | -5.5 | 42.7

The closing three records of the part before come first, to join the parts:
SMILES | MITF inhib | YB-1 expr inh | PD-1 reversal | Hedgehog inh
C[C@H](CO)N1C[C@H](C)[C@H](CN(C)Cc2ccc(C(=O)Nc3ccccc3N)cc2)Oc2ccc(NC(=O)Nc3cccc4ccccc34)cc2CC1=O | 24.5 | -0.571 | -5.2 | x
COC(=O)c1ccccc1NC(=O)CN(C)S(=O)(=O)c1c(C)cc(C)cc1C | -0.2 | x | -0.6 | x
C[C@@H]1CN([C@@H](C)CO)C(=O)c2cccc(NC(=O)NC3CCCCC3)c2O[C@@H]1CN(C)Cc1ccc(Oc2ccccc2)cc1 | 5.2 | 0.0863 | -5.5 | 42.7
C[C@H]1CN([C@@H](C)CO)C(=O)c2cc(NC(=O)C3CCCCC3)ccc2O[C@@H]1CN(C)C(=O)Nc1ccccc1 | -5.5 | 0.099 | -1.2 | 2.2
COc1ccc(CN(C)C[C@@H]2Oc3ccc(NS(C)(=O)=O)cc3C(=O)N([C@H](C)CO)C[C@H]2C)cc1 | 13.8 | -0.139 | 0.5 | -30.1
O=C(CCCN1C(=O)c2ccccc2C1=O)Nc1ccc(Cl)c(Cl)c1 | -16.6 | x | 0.7 | x
Oc1cc(O)c2c(c1)O[C@H](c1ccc(O)c(O)c1)[C@@H](O)C2 | -0.5 | 0.037 | x | -15.5
COc1cccc(NC(=O)CN(C)S(=O)(=O)c2ccc(OC)c(C)c2)c1 | 4.6 | x | -0.3 | x
C[C@@H]1CN([C@H](C)CO)C(=O)Cc2cc(NC(=O)Cc3cn(C)c4ccccc34)ccc2O[C@H]1CN(C)Cc1ccc2c(c1)OCO2 | 16.3 | 0.23 | x | -8.2
CNC[C@H]1Oc2c(NS(=O)(=O)c3cn(C)cn3)cccc2C(=O)N([C@H](C)CO)C[C@H]1C | -1.6 | -0.0636 | 3.2 | -38.2
CS(=O)(=O)N(CC(=O)Nc1ccc2ccccc2c1)c1ccc(Cl)cc1Cl | 11.5 | x | 0.1 | x
COC(=O)c1ccccc1NC(=O)CSc1nnnn1C | -34.5 | x | 0.6 | x
CC1=CC(=O)CC(C)(C)[C@@]1(O)/C=C/C(C)O[C@@H]1O[C@H](CO)[C@@H](O)[C@H](O)[C@H]1O (some centres not stated) | x | 1.52 | x | -26.1
COc1ccccc1-c1nc(N)n[nH]1 | 25.5 | 0.124 | 1.0 | -4.8
CS(=O)(=O)N(CC(=O)Nc1ccc(C(F)(F)F)cc1)c1ccc(F)cc1 | 15.7 | x | -3.2 | x
C[C@@H]1CN([C@@H](C)CO)C(=O)c2cc(NS(C)(=O)=O)ccc2O[C@H]1CN(C)Cc1ccc(Cl)c(Cl)c1 | 3.4 | 0.114 | -0.7 | -19.6
COc1ccc(S(=O)(=O)Nc2ccc3c(c2)C(=O)N([C@@H](C)CO)C[C@@H](C)[C@H](CN(C)Cc2ccc(C(=O)Nc4ccccc4N)cc2)O3)cc1 | 8.9 | -0.134 | -0.7 | x
Cn1c(=O)c2c(nc(NCCN3CCOCC3)n2Cc2ccc(Cl)cc2Cl)n(C)c1=O | -22.1 | x | -1.7 | x
COc1ccc(S(=O)(=O)Nc2cccc3c2O[C@H](CN(C)S(=O)(=O)c2ccc(F)cc2)[C@@H](C)CN([C@H](C)CO)C3=O)cc1 | -7.1 | 0.198 | 2.6 | 10.0
C[C@H]1CN([C@@H](C)CO)C(=O)c2cccc(NC(=O)C3CC3)c2O[C@@H]1CN(C)Cc1ccc(C(F)(F)F)cc1 | 5.6 | -0.0725 | -0.4 | 19.8
COc1ccc(CN(C)C[C@@H]2Oc3ccc(NC(=O)CCC(F)(F)F)cc3C(=O)N([C@@H](C)CO)C[C@H]2C)cc1 | 5.7 | 0.183 | 0.6 | 1.8
C[C@@H]1CN([C@H](C)CO)C(=O)c2cc(NC(=O)C3CC3)ccc2O[C@@H]1CN(C)S(=O)(=O)c1cccs1 | -24.3 | 0.382 | 1.3 | x
C[C@H]1CN([C@@H](C)CO)C(=O)c2cc(NC(=O)CCCN(C)C)ccc2O[C@H]1CN(C)Cc1ccccc1 | -0.6 | -0.297 | 1.1 | -11.0
C[C@H]1CN([C@@H](C)CO)C(=O)c2cc(NC(=O)Cn3cnnn3)ccc2O[C@@H]1CN(C)S(=O)(=O)c1cccs1 | -4.0 | -0.21 | 1.6 | -19.2
O=C(COc1ccc(Cl)cc1CO)Nc1ccccc1F | -145.0 | x | -0.6 | x
C[C@@H]1CCCCO[C@@H](CN(C)S(=O)(=O)c2cccs2)[C@@H](C)CN([C@H](C)CO)C(=O)c2cc(NC(=O)Nc3ccccc3)ccc2O1 | 8.1 | -0.31 | -1.7 | 8.9
CN(C)c1nc(N)nc(CSc2nnnn2-c2cccc3ccccc23)n1 | 66.3 | x | -4.7 | x
Cc1ccc(S(=O)(=O)Nc2ccc3c(c2)CC(=O)N([C@@H](C)CO)C[C@H](C)[C@@H](CN(C)C)O3)cc1 | 2.3 | -0.145 | 2.5 | 16.8

3 compounds from above, reduced to Hedgehog inh, YB-1 expr inh and MITF inhib:
compound | Hedgehog inh | YB-1 expr inh | MITF inhib
C[C@@H]1CN([C@H](C)CO)C(=O)c2cc(NS(=O)(=O)c3cn(C)cn3)ccc2O[C@@H]1CN(C)C | x | -0.306 | -2.1
CC1(C)CCc2cc(-c3ccnc(=S)[nH]3)ccc2O1 | 65.9* | -0.518 | 31.8
C[C@H]1CN([C@@H](C)CO)C(=O)c2cc(NC(=O)CCCN(C)C)ccc2O[C@@H]1CN(C)S(=O)(=O)c1cccs1 | -10.9 | -0.429 | -8.3

(more compounds)
SMILES | MITF inhib | YB-1 expr inh | PD-1 reversal | Hedgehog inh
O=C(CSc1nnc(-c2ccncc2)n1-c1ccccc1)Nc1c(Cl)cccc1Cl | 2.9 | x | 0.9 | x
C[C@@H]1CN([C@@H](C)CO)C(=O)c2cccc(NC(=O)Nc3ccccc3)c2O[C@@H]1CN(C)Cc1ccc2c(c1)OCO2 | -9.0 | -0.0883 | x | -53.9
C[C@@H]1CN([C@@H](C)CO)C(=O)c2cccc(NC(=O)c3cnccn3)c2O[C@@H]1CN(C)C(=O)Nc1ccc2c(c1)OCO2 | -12.6 | 0.186 | x | -58.4
OC1CCN(Cc2ccccc2)CC1 | -11.2 | -0.165 | -0.6 | -9.9
CC(Oc1cccc(NC(=O)c2cccc([N+](=O)[O-])c2)c1)C(=O)c1cccc(Cl)c1 (configuration not stated) | 33.0 | x | 0.9 | x
CNC(=O)CN(c1cccc(Cl)c1Cl)S(=O)(=O)c1ccc(C)cc1 | 2.7 | x | 1.1 | x
COc1ccc(NC(=O)CSc2n[nH]c(-c3ccc(Cl)cc3Cl)n2)cc1 | 4.7 | x | 2.2 | x
Cc1ccc(S(=O)(=O)Nc2ccc3c(c2)CC(=O)N([C@H](C)CO)C[C@@H](C)[C@@H](CN(C)C(=O)NC2CCCCC2)O3)cc1 | -1.1 | 0.116 | 0.0 | x
O=C(O)c1ccc(NS(=O)(=O)c2cccc(S(=O)(=O)c3ccc(Cl)c(Cl)c3)c2)cc1 | -27.9 | x | -0.1 | x
C[C@H]1CN([C@@H](C)CO)C(=O)Cc2cc(NC(=O)C3CCCCC3)ccc2O[C@@H]1CN(C)Cc1ccc(-c2ccccc2)cc1 | 18.2 | -0.0673 | x | -8.7
C[C@H](CO)N1C[C@H](C)[C@@H](CN(C)S(=O)(=O)c2ccccc2)Oc2ccc(NS(=O)(=O)c3ccc(F)cc3)cc2C1=O | -10.8 | 0.0434 | -0.5 | -32.2
C[C@H]1CN([C@@H](C)CO)C(=O)c2cccc(NC(=O)CCCCCC(=O)Nc3ccccc3N)c2O[C@H]1CN(C)CC1CC1 | -16.0 | -0.39 | 2.1 | x
CCCn1c2ccccc2c2nnc(SCC(=O)Nc3cccc4ccccc34)nc21 | 8.1 | x | -1.2 | x
Cc1noc(C)c1NC(=O)N(C)C[C@H]1Oc2ccc(NC(=O)NC(C)C)cc2CC(=O)N([C@H](C)CO)C[C@H]1C | -8.1 | 0.214 | -1.2 | -9.0
COc1ccc(S(=O)(=O)Nc2cccc3c2O[C@H](CN(C)S(=O)(=O)c2ccc(F)cc2)[C@H](C)CN([C@H](C)CO)C3=O)cc1 | -2.5 | -0.0179 | 0.6 | -31.6
C[C@H]1CN([C@@H](C)CO)C(=O)c2cccc(NC(=O)c3nc4ccccc4s3)c2O[C@@H]1CN(C)Cc1ccc(C(F)(F)F)cc1 | 29.3 | -0.212 | x | 7.6
C[C@H]1CN([C@@H](C)CO)C(=O)c2cccc(NC(=O)c3nc4ccccc4s3)c2O[C@@H]1CN(C)Cc1ccc(Cl)c(Cl)c1 | 35.5 | -0.147 | -6.0 | 52.6
Cc1noc(C)c1S(=O)(=O)Nc1ccc2c(c1)CC(=O)N([C@@H](C)CO)C[C@H](C)[C@H](CN(C)Cc1ccc(C(F)(F)F)cc1)O2 | 8.1 | -0.0735 | -3.4 | 18.1

Assay outcomes as filed in PubChem BioAssay.
